KCNQ2 pot – KCNQ2 (rat) channel potentiation | O88943 | CHO-K1 KCNQ2, FluxOR thallium flux fluorescence; hits give high values | B-score at 10 µM | hit rate 0.54% among 310,000;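 active = fluorescence ratio B-score at least 3 SD of library B-scores, with initial fluorescence B-score within 3 SD, cut at about 5.3 in these data; same plate scores as AID 2156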;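 also: B-score of peak minus minimum over baseline fluorescence ratio after K+ and Tl+ stimulus; positive B-score means potentiation of KCNQ2 with more thallium influx and brighter signal; only the inactives scoring about 0 or higher are listed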
Target sequence (O88943 whole entry, looked up): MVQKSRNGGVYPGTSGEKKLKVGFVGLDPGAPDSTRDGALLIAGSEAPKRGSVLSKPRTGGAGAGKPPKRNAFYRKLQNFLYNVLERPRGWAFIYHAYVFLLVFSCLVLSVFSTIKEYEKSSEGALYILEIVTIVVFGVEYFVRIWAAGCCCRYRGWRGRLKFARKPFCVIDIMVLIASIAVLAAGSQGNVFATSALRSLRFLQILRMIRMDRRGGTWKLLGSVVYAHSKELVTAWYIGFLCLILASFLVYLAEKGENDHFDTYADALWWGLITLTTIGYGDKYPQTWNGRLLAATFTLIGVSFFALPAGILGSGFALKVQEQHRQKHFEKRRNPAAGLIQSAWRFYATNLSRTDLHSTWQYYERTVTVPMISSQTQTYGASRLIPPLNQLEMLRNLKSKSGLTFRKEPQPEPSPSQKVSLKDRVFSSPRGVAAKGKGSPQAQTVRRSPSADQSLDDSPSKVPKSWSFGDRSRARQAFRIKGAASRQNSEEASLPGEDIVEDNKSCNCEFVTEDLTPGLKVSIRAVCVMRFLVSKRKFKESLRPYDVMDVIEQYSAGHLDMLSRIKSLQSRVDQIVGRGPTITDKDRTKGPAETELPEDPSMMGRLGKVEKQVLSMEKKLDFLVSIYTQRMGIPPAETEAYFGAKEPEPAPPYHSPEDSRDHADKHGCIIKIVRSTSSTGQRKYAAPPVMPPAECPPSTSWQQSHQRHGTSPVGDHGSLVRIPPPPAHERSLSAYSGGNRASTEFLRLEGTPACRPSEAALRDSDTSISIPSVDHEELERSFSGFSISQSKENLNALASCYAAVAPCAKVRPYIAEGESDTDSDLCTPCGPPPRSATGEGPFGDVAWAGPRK
KCNQ2 pot baseline – recorded beside KCNQ2 pot, whose call it bears; B-score; compound at 10 µM; measured here: initial fluorescence intensity artifact check;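 brightness before thallium and not channel activity; 0 = typical well and far values either way flag optical interference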
Starred values were filed as active, the others as inactive; x = no result given. Some of the compounds tested, so the mix of outcomes need not match the whole.

KCNQ2 pot	KCNQ2 pot baseline	structure
0.58	0.81	CSCCC(NC(=O)/C(=C\c1ccc(Cl)cc1)NC(=O)c1ccccc1)C(=O)O (stereo unspecified)
0.39	1.4	Cn1c(SCC(=O)Nc2cccnc2)nnc1-c1ccccc1F
0.49	0.71	O=C(CSc1ccc2nnc(-c3ccccn3)n2n1)Nc1ccc(F)cc1F
1.3	-1.3	CCOC(=O)c1cn[nH]c1NC(=S)Nc1ccc(OC)cc1
0.62	0.01	CCN(CC)C(=O)Cn1cnc2sc(C(=O)Nc3cc(OC)c(OC)c(OC)c3)c(C)c2c1=O
1.8	-1.9	Nc1cn(C2OC(CO)C(O)C2O)c(=O)[nH]c1=O (stereo unspecified)
0.03	0.79	CCC(NC(=S)NCc1ccccc1)C(=O)O (stereo unspecified)
1.3	-0.79	CCOc1c2ccc(C(=O)NCc3ccc4c(c3)OCO4)cc2nn1C
0.11	1.9	Cc1n[nH]c(C)c1S(=O)(=O)N1CCCC(C(=O)NC2CCCc3ccccc32)C1 (stereo unspecified)
0.34	1.4	O=C(Nc1cnn(Cc2ccc(F)cc2)c1)c1cc(-c2cccs2)on1
3.4	-0.18	COC(=O)CNC(=O)c1cc(-c2ccncc2)nc2ccc(C)cc12
0.39	1.4	Cc1cc(C)n(-c2cc(C(=O)O)cc(C(=O)O)c2)n1
1.4	0.07	CCN(CC)CCCNC(=O)C1c2ccccc2C(=O)N(C)C1c1ccc(OC)cc1 (stereo unspecified)
0.66	1.6	COC(C/C=C/[C@@H](O)[C@H](C)OCc1ccccc1)OC
0.05	-1.4	Cc1cc(C)nc(NS(=O)(=O)c2ccc(NC(=O)c3cccs3)cc2)n1
0.61	-0.26	CCC(C(=O)NC1CCCC1)N(C(=O)Cn1nnc(-c2cccs2)n1)c1cnc2ccccc2c1 (stereo unspecified)
0.41	1.2	CC(NC(=O)CCN1N=C(c2ccccc2)CCC1=O)c1ccc2c(c1)OCCO2 (stereo unspecified)
3.2	2.6	CCCOc1ccc(N2C(=O)CC(NCCCN3CCC(C(N)=O)CC3)C2=O)cc1 (stereo unspecified)
0.33	0.5	CCN1C(=O)N(CC)C2NC(=S)NC21 (stereo unspecified)
0.34	-2	CCOC(=O)c1cnc2ccc(C)cn2c1=O
0.65	0.27	COc1cccc(NC(=O)C(NCC(C)(C)CN(C)C)c2ccccc2)c1 (stereo unspecified)
0.59	0.93	Cc1nc(SCCCSc2n[nH]c(C)n2)n[nH]1
1.1	1.5	COc1cccc(CNC(=O)CSCC(=O)Nc2ccc(C)cc2)c1
0.25	-0.62	CC(C)c1ccc(NC(=O)C2C3C=CC(CC3)C2C(=O)O)cc1 (stereo unspecified)
0.93	0.76	OC(COc1ccccc1)Cn1cc(Br)cn1 (stereo unspecified)
1.5	-0.05	CC(C)n1nnnc1-c1cc(Cl)cc(Cl)c1
0.24	0.89	Cc1nn(-c2ccccc2)c2c1C1(C(=O)N(C)c3ccccc31)N(c1ccccc1)C(=O)N2 (stereo unspecified)
1.4	-0.73	Cc1csc(NC(=O)CN(C)S(=O)(=O)c2cccc3cccnc23)n1
1.1	0.53	O=C(NCc1cccc(Cl)c1)c1cccc(OC2CCN(C(=O)C3CC3)CC2)c1
1.2	-1.5	Cc1c(C(=O)NCc2cccnc2)oc2ccc(S(=O)(=O)N3CCC4(CC3)OCCO4)cc12
1.5	-1	COc1ccc(NC(=O)CN(C)C(=O)CCCN2C(=O)c3cccc4cccc(c34)C2=O)cc1
1.9	-0.2	COC(=O)c1c(C)nc2nonc2c1N
0.62	0.01	CCCCn1c(NC(C)CC)nc2c1c(=O)[nH]c(=O)n2C (stereo unspecified)
1.5	1.8	CC1(C)CC(=O)C2=C(C1)N(Cc1cccnc1)C(=O)C2(NC(=O)C1CC1)C(F)(F)F (stereo unspecified)
0.01	0.23	COc1ccc2c(CN3CCN(S(=O)(=O)c4cccs4)CC3)cc(=O)oc2c1
0.11	-0.4	CCNC(=O)c1ccc(C2SCC(=O)N2Cc2ccco2)cc1 (stereo unspecified)
1.4	-0.14	COc1ccc(Cc2nn[nH]n2)cc1
0.01	0.01	CC1(C)CC(NCCC(c2ccccc2)c2ccco2)CCO1 (stereo unspecified)
0.03	1.6	Cc1c(NC(=O)c2ccc(CC(C)C)o2)c(=O)n(-c2ccccc2)n1C
1.7	0.5	COc1ccc(C(=O)N2CCN=C2SCc2cccnc2)c(OC)c1
2.6	-1.4	CCOC(=O)N1CCN(C(=O)c2cnc3n(c2=O)CCS3)CC1
0.94	0.65	Cc1ccc2c(CN3CCN(Cc4ccccc4)CC3)cc(=O)oc2c1
1	0.84	CCOc1ccc(C(=O)Nc2ccc3c(c2)OCCO3)cc1OC
0.36	-1.2	COc1ccccc1NC(=O)Cn1cc(C#N)c2ccccc21
1	0	CC(C)(C)OC(=O)N1CCOCCOCCN(C(=O)OC(C)(C)C)CCOCCOCC1
1.8	0.41	C/C=C/c1ccc(OCC(=O)OCc2csc(CC(=O)Nc3ccccc3C)n2)c(OC)c1
2.2	0.8	Cc1ccccc1N1CC(O)(c2cccs2)[N+]2=C1CCCC2 (stereo unspecified)
0.32	-0.05	CCCCNC(=O)COC(=O)CNC(=O)c1cc(Cl)cc([N+](=O)[O-])c1
0.14	0.81	Cc1cccc(N=Nc2c(N)n[nH]c2-c2ccc(Cl)cc2)c1
3.5	0.18	COc1ccc(NC(=O)CCC2CCCC2)cc1OC
2	-2.8	Cc1nn(-c2ccccc2)c2sc(-c3nnc(SCC(=O)O)o3)cc12
0.39	-3.4	O=C(N/N=C/c1cccc([N+](=O)[O-])c1)C1COc2ccccc2O1 (stereo unspecified)
4.6	-2.2	O=C(CSc1nc2ccccc2c2c1CCCC2)N1CCOCC1
1.2	-1.4	Cc1cc(C)c(N2C(=O)C3C4CC(=O)C(c5ccccc54)C3C2=O)c(C)c1 (stereo unspecified)
1.4	-0.46	Cc1onc(C(=O)Nc2sc3c(c2C#N)CCCC3)c1[N+](=O)[O-]
0.78	0.74	COc1ccc(F)cc1CN1CCN(C(=O)CCC(=O)Nc2nnc(C(C)C)s2)CC1
0.02	-0.72	Cc1cccc(C(=O)N/N=C/c2cc(Br)c(Br)o2)c1
0.07	1.8	CCS(=O)(=O)Nc1ccc2c(c1)OCO2
0.22	-2	CN(C)CCNc1nc2c(c(=O)[nH]c(=O)n2C)n1CCOc1ccccc1
1.3	1.3	O=C(NCc1nnc(SCC(=O)N2CCc3ccccc32)o1)c1cccs1

Overlap with the part before: 4 entries, followed by the next part.
KCNQ2 pot	KCNQ2 pot baseline	structure
0.02	-0.72	Cc1cccc(C(=O)N/N=C/c2cc(Br)c(Br)o2)c1
0.07	1.8	CCS(=O)(=O)Nc1ccc2c(c1)OCO2
0.22	-2	CN(C)CCNc1nc2c(c(=O)[nH]c(=O)n2C)n1CCOc1ccccc1
1.3	1.3	O=C(NCc1nnc(SCC(=O)N2CCc3ccccc32)o1)c1cccs1
0.58	-1.6	Cc1ccc(OCCC(=O)OC(C)C(=O)Nc2c(C)n(C)n(-c3ccccc3)c2=O)cc1 (stereo unspecified)
1	-0.84	CCN(CC)P(=O)(Nc1ccc(Br)cc1)c1c(C)nn(CCC#N)c1NC(=O)c1ccc(Cl)cc1 (stereo unspecified)
0.03	-0.69	Cc1cccc(-c2n[nH]c(=S)n2/N=C/c2ccco2)c1
0.09	0.35	Cc1ccccc1CC1(CO)CCCN(C(=O)c2ccc(F)cc2)C1 (stereo unspecified)
0.3	-1	CCCOc1ccc(C(=O)CCC(=O)OCC(=O)Nc2ccc(Oc3ccccc3)cc2)cc1
0.71	0.68	O=C(c1cc(F)c(F)cc1Cl)N1CCCCC1
1.2	0.4	O=C(COC(=O)/C=C/c1cccc(F)c1)Nc1ccccc1
0.29	-0.02	CC(OC(=O)CN1C(=O)NC2(CCCC2)C1=O)C(=O)c1ccc(C(C)(C)C)cc1 (stereo unspecified)
0.42	-1.2	O=C(Cc1ccc(Cl)c(Cl)c1)Nc1cccnc1
0.52	-1.4	CN1CCN(/N=C/c2ccc(N(C)c3ccccc3)cc2)CC1
0.22	-0.12	CN1CCN(C(CNS(=O)(=O)c2cccs2)c2cccnc2)CC1 (stereo unspecified)
0.19	-1.3	O=[N+]([O-])c1cccc(-c2noc(COc3ccccc3)n2)c1
0.61	0.07	COc1cccc(CNc2ccc(F)c(Cl)c2)c1OC
1.2	1.1	O=C(NC(Cc1ccccc1)C(=O)O)/C(=C/c1cccc(Br)c1)NC(=O)c1ccco1 (stereo unspecified)
1.4	-0.48	COc1cc(C(=O)NCCc2cn3ccc(C)cc3n2)cc(OC)c1OC
0.62	-0.64	COc1ccc(CN2CCC(n3nccc3NC(=O)CCOc3ccccc3)CC2)cc1C
0.74	0.51	CC(=O)c1ccc(N(CC(=O)NC2CCCCC2)C(=O)CNC(=O)c2ccco2)cc1
3.8	-1.2	COc1cccc(C(=O)Nc2sc3c(c2C(=O)O)CCCC3)c1
1.4	-1.1	CCCn1nc(C(=O)OCC(=O)c2ccccc2)c2ccccc2c1=O
0.71	0.18	O=C(O)c1ccc(SCc2cnc(Cl)s2)cc1

Overlap with the part before: five entries, then new ones.
KCNQ2 pot	KCNQ2 pot baseline	structure
0.62	-0.64	COc1ccc(CN2CCC(n3nccc3NC(=O)CCOc3ccccc3)CC2)cc1C
0.74	0.51	CC(=O)c1ccc(N(CC(=O)NC2CCCCC2)C(=O)CNC(=O)c2ccco2)cc1
3.8	-1.2	COc1cccc(C(=O)Nc2sc3c(c2C(=O)O)CCCC3)c1
1.4	-1.1	CCCn1nc(C(=O)OCC(=O)c2ccccc2)c2ccccc2c1=O
0.71	0.18	O=C(O)c1ccc(SCc2cnc(Cl)s2)cc1
0.01	0.77	Cc1cccn2c(=O)nc(SCC(=O)N3CCC(Cc4ccccc4)CC3)nc12
1.1	0.3	CS(=O)(=O)CCSc1ncccc1C(=O)NCc1cccs1
0.63	0.01	CCOC(=O)c1csc(NC(=O)CSc2nnnn2-c2ccc3c(c2)OCCO3)n1
0.98	1.5	Cc1c(OCc2ccc(C(=O)O)o2)ccc2c3c(c(=O)oc12)CCC3
0.65	-0.63	O=C(OCc1cccc([N+](=O)[O-])c1)c1ccc2ccccc2n1
1.5	0.9	CCc1cc(=O)oc2cc(C)cc(OCC(=O)NCCN3CCOCC3)c12
0.99	1.3	Cn1c(C(=O)N[C@@H](Cc2ccccc2)C(=O)O)cc2cc(F)ccc21
0.69	0.38	COc1ccc(/C=C/C(=O)N2CCN(S(=O)(=O)c3ccccc3)CC2)cc1OC
2	-0.1	c1ccc(Cn2ncc3c(Nc4ccccc4)ncnc32)cc1
0.36	0.84	O=C1CN(C(=O)c2ccc(F)c(S(=O)(=O)N3CCOCC3)c2)c2ccccc2N1
0.28	0.1	CC(=O)c1cccc(-n2nnnc2SCC(=O)N2CCCC2)c1
0.52	0.15	CCOC(=O)CNC(=O)N1CCCC(C(=O)c2ccc3c(c2)OCO3)C1 (stereo unspecified)
0.25	-0.24	CCNc1ccc(S(=O)(=O)N(C)C)cc1NCC(=O)Nc1ccc(Br)cc1F
0.71	-0.37	Nc1nonc1-n1nnc(C(=O)N/N=C/c2ccc(OCc3cccc(Cl)c3)cc2)c1CN1CCCCC1
0.85	x	O=C(O)c1ccc(-n2nc(C(F)(F)F)c3c2CCCC3)cc1
0.01	-0.19	Cc1ccc2nc(SCC(=O)NCc3ccc(F)cc3)[nH]c2c1
0.06	-0.66	O=c1c2ccccc2oc2nc(-c3ccco3)n(-c3ccccc3)c(=O)c12
1	-0.63	CCN1C(=O)c2ccccc2S(=O)(=O)c2ccc(C(=O)NCCOC)cc21
0.6	-0.38	O=C(NCC1CCN(C(=O)c2cccc([N+](=O)[O-])c2)CC1)c1cccc([N+](=O)[O-])c1
0.22	0.98	O=C(O)CCc1nn2c3ccccc3nc2n(Cc2ccccc2)c1=O
0.31	-0.01	Fc1ccc(NC(=S)Nc2cccnc2)c(F)c1F
0.99	-0.68	Cn1c(C(=O)N2CCOCC2)cnc1Sc1ncc(C(F)(F)F)cc1Cl
0.04	0.04	Cc1noc(NS(=O)(=O)c2ccc(N/C=C\C(=O)c3ccncc3)cc2)c1C
0.77	-0.57	O=C(NCc1cccc(Cl)c1)NC(=O)c1csc([N+](=O)[O-])c1
0.01	-0.58	Cn1c(NCCCN2CCOCC2)nc2c1c(=O)n(Cc1ccc(Cl)cc1)c(=O)n2C
0.01	0	CCOc1ccc(CNC(=O)CCc2cn(C)c3ccccc23)cc1OC
0.14	-0.18	O=C1OC(N2C(=O)CC[C@H]2C(=O)Nc2cccc(F)c2)c2ccccc21 (stereo partly specified)
0.93	-0.6	COc1ccc(-n2ccnc2SCC(=O)NCc2ccccc2)c(OC)c1
1.2	-2.1	CCC(C)NC(=O)C1CCN(S(=O)(=O)CC)CC1 (stereo unspecified)
0.08	1.9	CCOc1cc(/C=N/NC(=O)c2cc(-c3cccc(OC)c3)nc3ccccc23)ccc1O
0.02	0.21	COc1cccc(C2C3=C(CCCC3=O)NC3=C2C(=O)c2ccccc23)c1 (stereo unspecified)
0.05	-0.02	CCCc1nnc(NC(=O)CCC(=O)N2CCN(C3c4ccccc4-c4ccccc43)CC2)s1

From PubChem
